Screening data (PubChem BioAssay)
GLA inh pH 4.5 = blocks human alpha-galactosidase A at pH 4.5; P06280; purified enzyme, 4-MU-alpha-Gal fluorescence, pH 4.5; activity change, negative = inhibition, % at 105 µM; 230,000 tested, under 10 active; inconclusive = small, poorly fitted or top-dose-only inhibition, or a rising curve; inactive = flat fitted curve, though single readings scatter; no compound was filed as active;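 also: 0% = full activity with enzyme and -100% = basal without enzyme; dose as in the result columns while the protocol names 77 µM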
Rango complex inh = inhibitors of Rango-importin beta complex formation; Potency, µM (top dose mostly 92.2 µM), for inactives: at the top dose inhibition of complex formation; actives 0.031% (n = 340,000); Q14974; Rango CFP/YFP FRET sensor + importin beta, 45 min; active = rising FRET ratio curve, often small or poorly fitted; inconclusive = mostly compound fluorescence or quenching in the first reads; inactive = flat curves in all reads;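 also: potency is read from the fitted curve at half-maximal effect; 0% = DMSO wells and 100% = buffer wells lacking importin beta; nearly all actives have a fitted effect of over 15% in size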
Target sequence (Q14974 whole entry, looked up): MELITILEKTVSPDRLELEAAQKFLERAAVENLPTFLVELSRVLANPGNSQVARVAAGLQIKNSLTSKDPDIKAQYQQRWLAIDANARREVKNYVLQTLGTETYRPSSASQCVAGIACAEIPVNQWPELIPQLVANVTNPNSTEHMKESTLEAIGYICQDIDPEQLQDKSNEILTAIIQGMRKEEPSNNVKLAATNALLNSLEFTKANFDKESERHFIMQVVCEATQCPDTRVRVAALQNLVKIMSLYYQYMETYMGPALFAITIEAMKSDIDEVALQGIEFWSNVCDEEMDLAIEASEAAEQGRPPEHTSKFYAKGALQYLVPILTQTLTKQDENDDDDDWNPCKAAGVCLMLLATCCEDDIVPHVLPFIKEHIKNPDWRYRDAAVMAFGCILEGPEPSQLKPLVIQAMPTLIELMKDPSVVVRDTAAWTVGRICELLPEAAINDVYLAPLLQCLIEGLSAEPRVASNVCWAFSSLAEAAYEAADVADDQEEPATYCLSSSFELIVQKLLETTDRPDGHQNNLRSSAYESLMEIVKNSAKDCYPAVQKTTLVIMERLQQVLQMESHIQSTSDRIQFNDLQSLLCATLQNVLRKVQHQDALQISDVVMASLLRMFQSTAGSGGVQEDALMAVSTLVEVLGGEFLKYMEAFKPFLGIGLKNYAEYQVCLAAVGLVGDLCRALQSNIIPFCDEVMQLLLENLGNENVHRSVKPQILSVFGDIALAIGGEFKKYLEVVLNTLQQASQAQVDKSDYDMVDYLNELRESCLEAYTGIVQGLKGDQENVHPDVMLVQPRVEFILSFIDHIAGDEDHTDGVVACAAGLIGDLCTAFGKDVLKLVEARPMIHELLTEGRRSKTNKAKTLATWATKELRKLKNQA
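FRET biosensor (snurportin 1 IBB flanked by EYFP and cerulean), 50 nM, with compound 5 min, then 0.125 microM importin beta in PBS, 1 mM DTT, 0.02% Tween-20, 0.1% BSA. CFP/YFP ratio read after 45 min at room temperature; pre-read flags interference.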
miR-21 reporter = raises the signal of a miR-21 reporter. Potency, µM (doses to about 38.3 µM), inactives show top-dose reporter change, positive = more light. AID 2288. 340,000 tested, under 10 active. HeLa miR-21 FLuc reporter, luciferase, 48 h; active = well fitted rising curve with a large enough effect; inconclusive = small, poorly fitted or top-dose-only effect; inactive = no such curve, though single readings can be large or run the other way;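 also: % of control where 0% means no effect; miR-21 action dims this reporter so a rising signal means less miR-21 action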
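HeLa miR-21-FLuc reporter line, endogenous miR-21; 2000 cells/well in DMEM/10% FBS; compound titration up to ~40uM final, 48 h, 37 degree Celsius; luciferase detection reagent, 15 min lysis, CCD luminescence.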
Rango dissoc inh = prevents RanGTP from dissociating the Rango-importin beta complex; actives 0.071% (n = 340,000); Biochemical FRET Rango-importin beta, RanGTP-induced dissociation; AID 540253; Potency, µM (highest dose often 46.1 µM), for the others: at the top dose activity change, negative = inhibition; active means falling FRET ratio curve, often poorly fitted, with flat reads before Ran was added; inconclusive means other falling curves, or compound fluorescence or quenching; inactive means flat or rising ratio curve;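 also: potency is read from the fitted curve at half-maximal effect; % of control where 0% means no effect; nearly all actives have a fitted effect of over 45% in size; -100% = wells without RanGTP and RCC1; the record marks most hits as doubtful in a second field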
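Compounds preincubate 5 min with complex of recombinant Rango and importin beta in PBS with 1 mM DTT. Ran (0.6 uM) loaded with 2 mM GTP plus 0.2 uM RCC1 starts dissociation; FRET is recorded 45 min later.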
* = called active by the depositor; ? = inconclusive; / = no result given. A portion of the library, so the mix of outcomes need not match the whole.

GLA inh pH 4.5	Rango complex inh	miR-21 reporter	smiles	Rango dissoc inh
/	3.2%	/	COc1cccc(NC(=O)CN(C)C(=O)c2ccc(NC(=O)CC3SC(N4CCCCC4)=NC3=O)cc2)c1 (stereo not drawn)	11%
-4	-0.3%	-1%	CCN1CCN(CC(=O)Nc2ccc3c(c2)OCCO3)C(=O)C1=O	0%
2	-1.4%	-4%	O=C(O)Cc1c(-c2ccccc2Cl)c2cc(Br)ccc2[nH]c1=O	3%
-2	-4.2%	2%	CCN1C(=O)C2(Nc3ccccc3-c3nc4ccccc4n32)c2cc(OC)ccc21 (stereo not drawn)	-2%
5	/	11%	Cc1cc(C)nc(N/N=C/C2=C(O)CC(c3ccccc3)CC2=O)n1 (stereo not drawn)	/
-6	-0.8%	0%	CCCC(=O)N1c2ccccc2NC2=C(C(=O)CCC2)C1c1ccc(F)cc1 (stereo not drawn)	14%
/	-1.5%	/	O=C(OCc1ccc([N+](=O)[O-])cc1)c1cc(S(=O)(=O)N2CCCCC2)ccc1N1CCOCC1	-6%
-5	0.5%	-19%	S=C(NCc1cccs1)Nc1ccc(Br)cc1Cl	8%
/	-1.7%	-2%	CCN(CC)C(=O)Cn1cc(C(=O)C(=O)NCCCN2CCOCC2)c2ccccc21	-12%
/	0.7%	1%	CCN(CC)Cc1c(C(=O)N/N=C/c2cccnc2)nnn1-c1nonc1N	-4%
2	2.5%	12%	Cc1cc2nc(N=C(N)N)nc(C)c2cc1C	-3%
-6	4.8%	-26%	CCn1cc([N+](=O)[O-])c(C(=O)Nc2ccn(C34CC5CC(CC(C5)C3)C4)n2)n1	-4%
/	-1.4%	/	COC(=O)c1sc(NC(=O)c2cnccn2)c(C(=O)OC)c1C	16%
5	?	0%	O=C(Nc1ccccc1)Nc1cccc(Cl)c1	11%
-16	?	-6%	CCSc1nc2c(c(=O)n1Cc1ccccc1)SC(C)C2 (stereo not drawn)	-8%
/	-5.6%	/	CC(OC(=O)Cn1cnc2c1c(=O)n(C)c(=O)n2C)C(=O)Nc1ccc(Cl)cc1 (stereo not drawn)	-17%
-10	2.2%	-8%	O=C1CCN(CCc2ccccc2)CCN1[C@H](CSc1ccc(Br)cc1)c1ccccc1	1%
/	-4.7%	1%	Fc1ccccc1NC(=S)NCc1ccccc1	-20%
/	0.0%	/	CCC1(c2ccccc2)NC(=O)N(CC(=O)Nc2ccccc2C(=O)NC2CCCC2)C1=O (stereo not drawn)	20%
-6	-3.4%	-32%	COC(=O)c1ccc(NC(=O)c2cc3sccc3n2C)cc1	-16%
/	-2.5%	/	CC(=O)c1c(C)[nH]c(C(=O)OCC(=O)Nc2c(C)cccc2C)c1C	-13%
-11	5.5%	24%	Cc1cccc(Oc2cc(NC(=O)c3ccccc3)cc([N+](=O)[O-])c2)c1	19%
9	2.2%	-39%	N#Cc1nc(-c2ccc(Cl)cc2)oc1NCc1cccc2c1OCO2	-1%
/	-3.8%	/	C=CC[C@@H](CC(=O)N(CCO)Cc1ccccc1)C(=O)NC[C@H](OC(=O)[C@@H](CC=C)CC(=O)OC(C)(C)C)c1ccccc1	-8%
-2	-1.3%	-9%	O=C(c1ccccc1)c1nn(-c2cccc(Cl)c2)ccc1=O	-8%

Six entries from above, with values under each structure:
Every second line gives: GLA inh pH 4.5, Rango complex inh, miR-21 reporter, Rango dissoc inh
O=C(Nc1ccccc1)Nc1cccc(Cl)c1
  5, ?, 0%, 11%
CCSc1nc2c(c(=O)n1Cc1ccccc1)SC(C)C2 (stereo not drawn)
  -16, ?, -6%, -8%
CC(OC(=O)Cn1cnc2c1c(=O)n(C)c(=O)n2C)C(=O)Nc1ccc(Cl)cc1 (stereo not drawn)
  /, -5.6%, /, -17%
O=C1CCN(CCc2ccccc2)CCN1[C@H](CSc1ccc(Br)cc1)c1ccccc1
  -10, 2.2%, -8%, 1%
Fc1ccccc1NC(=S)NCc1ccccc1
  /, -4.7%, 1%, -20%
CCC1(c2ccccc2)NC(=O)N(CC(=O)Nc2ccccc2C(=O)NC2CCCC2)C1=O (stereo not drawn)
  /, 0.0%, /, 20%

Of the compounds above, two contain two or more sulfur atoms.
GLA inh pH 4.5	Rango complex inh	miR-21 reporter	smiles	Rango dissoc inh
-5	0.5%	-19%	S=C(NCc1cccs1)Nc1ccc(Br)cc1Cl	8%
-16	?	-6%	CCSc1nc2c(c(=O)n1Cc1ccccc1)SC(C)C2 (stereo not drawn)	-8%

The results go on.
GLA inh pH 4.5	Rango complex inh	miR-21 reporter	smiles	Rango dissoc inh
-2	-4.2%	1%	ClC1=C(Cl)C(Cl)=C(Cl)C1=C/C=C/c1ccccc1	-11%
8	-4.2%	-3%	Cc1cc(N2CC(C)OC(C)C2)nc(C(C)C)n1 (stereo not drawn)	17%
-14	4.0%	-6%	COc1ccc(-n2c(-c3ccc(C)cc3)n[nH]c2=S)cc1	-14%
/	-6.1%	/	Cc1ccc(C)c(OCC(=O)NNC(=O)CCN2CCN(c3ccccc3)CC2)c1	-7%
-8	0.4%	-27%	CCn1c(SCC(=O)Nc2ccc(C(C)=O)cc2)nc2nc3c(cc2c1=O)COC(C)(C)C3	-1%
/	-0.1%	/	Cc1ccc(S(=O)(=O)N2CC=C(N)N2)cc1	6%
2	/	-4%	CCOC(=O)c1sc(NC(=O)CSc2nc3c(c(=O)n2-c2ccccc2)SCC3)c(C(=O)OCC)c1C	/
-8	3.7%	0%	CCOC(=O)C=C(C(=O)OCC)C(=O)OCC	1%
2	2.6%	-1%	O=C(c1ccccc1)c1ncc(C(F)(F)F)cc1Cl	2%
-1	0.2%	3%	CC(=O)Nc1ccc(S(=O)(=O)Nc2ccc(F)c([N+](=O)[O-])c2)cc1	1%
-7	9.8%	-21%	CC(=O)Nc1ccc(Nc2c3c4c(cccc4n(C)c2=O)C(=O)c2ccccc2-3)cc1	1%
/	7.1%	-1%	COc1ccc(CC(=O)NCC2CCCN(Cc3ccc(OC)cc3F)C2)cc1 (stereo not drawn)	7%
/	6.0%	-4%	CCc1nn(CC(=O)N2CC(C)CC(C)C2)c(=O)c2cccn12 (stereo not drawn)	0%
3	-3.7%	0%	O=C1CC(NCCN2CCOCC2)C(=O)N1Cc1ccc(N2CCCC2=O)cc1 (stereo not drawn)	-12%
-2	-0.2%	-2%	O=C(COc1cccc2ccccc12)N/N=C/c1ccccc1OCc1ccc(C(=O)O)cc1	-1%
-1	-2.9%	1%	COc1ccc(NC(=O)C2CCN(S(=O)(=O)c3ccc(C)cc3)CC2)cc1OC	20%
0	-2.0%	-3%	CC1CC(=O)N(CC(=O)NCc2ccco2)c2ccccc2S1 (stereo not drawn)	1%
-2	-5.1%	-7%	O=S(=O)(c1ccccc1)N1CC=C(c2ccccc2)CC1	-8%
/	?	-5%	COc1ccc2[nH]c3c(c2c1)[C@@H]1CCN2C(=O)CCC[C@H](C3)[C@H]12	-1%
4	2.6%	4%	CC(=O)Nc1ccc(NC(=O)C(C)OC(=O)c2ccc(OCc3c(C)noc3C)cc2)cc1 (stereo not drawn)	7%
/	0.0%	4%	CC(C)(C)C(=O)N1c2ccccc2CCc2ccccc21	20%
/	0.5%	/	CN(Cc1ccccc1)C(=O)c1cccc(NC(=O)Cc2ccc(NC(=O)C3CCCN(C(=O)CCc4ccccc4)C3)cc2)c1 (stereo not drawn)	-9%
0	-1.7%	-15%	Cc1noc(C)c1CSc1nnc2ccc3ccccc3n12	-11%
/	0.9%	18%	Cc1onc(-c2ccccc2Cl)c1C(=O)Nc1ccccc1O	1%
/	0.1%	/	CCc1nnc(NC(=O)[C@@H](NS(=O)(=O)c2ccc3c(c2)OCCO3)C(C)C)s1	31%
4	1.4%	7%	O=C(Nc1ccc(S(=O)(=O)N2CCOCC2)cc1)c1ccc2c(c1)OCO2	0%
-3	-2.3%	-2%	O=c1cc[nH]c2ccc(OC(F)(F)F)cc12	29%
-6	0.9%	-3%	Cc1ccc(-n2c(=O)c3sccc3n(CC(=O)NCc3ccco3)c2=O)cc1F	-2%
0	/	-6%	Cc1ccc(C2CC(C(F)(F)F)n3nc(C(=O)NCC4CCCO4)cc3N2)cc1 (stereo not drawn)	/
0	4.1%	-2%	CCn1c(-c2cc(OC)ccc2OC)csc1=Nc1c(C)n(C)n(-c2ccccc2)c1=O	-3%
-2	-0.1%	-9%	Cn1c(=O)oc2cc(S(=O)(=O)N3CCN(c4ccc(F)cc4)CC3)ccc21	-15%
-6	2.0%	6%	Cc1ccc(NC(=O)C[n+]2cc(-c3ccc(C)cc3)n3c2CCC3)cc1	-1%
-8	-0.8%	-22%	CCCCCCSc1nnc2[nH]c(=O)cc(N)n12	16%
12	3.3%	-10%	Cc1ccc(/C=N/n2c(COc3ccccc3)n[nH]c2=S)s1	3%
5	3.6%	1%	CCN(CC)C(=O)c1ccccc1NC(=O)c1ccccc1C	6%
-1	4.8%	-50%	O=C(CC(Nc1ccc(Cl)cc1)C(=O)O)c1ccccc1 (stereo not drawn)	-3%
-2	0.2%	-9%	COc1ccc(OCc2nc(C#N)c(N3CCN(c4ccc(OC)cc4)CC3)o2)cc1	28%
9	0.3%	-7%	Cc1cc(=O)oc2cc(NC(=O)CC3(CC(=O)O)CCCC3)ccc12	-4%
/	0.3%	/	CCCCOC(=O)c1ccc(NC(=O)c2ccc(F)cc2F)cc1	11%
-1	-1.1%	0%	CCOc1ccc(OCC)c(S(=O)(=O)NCc2cccnc2)c1	1%
3	0.4%	-13%	COc1ccc(NC(=O)C2CCCN(S(=O)(=O)c3cccc4nonc34)C2)c(OC)c1 (stereo not drawn)	-11%
-1	?	-15%	COCCCNC(=S)NCCNc1nc2cc(C)c(C)cc2cc1C#N	?
/	-2.7%	19%	CC(=O)Nc1ccc(S(=O)(=O)Nc2cccc(C(=O)Nc3ccccc3C(=O)O)c2)cc1	-21%
-4	0.3%	1%	O=C(c1nsnc1-c1ccccc1O)N1CCCCC1	0%
/	1.1%	-9%	Cc1nc(-c2ccc(S(=O)(=O)N3CCN(c4cccc(C)c4C)CC3)cc2)co1	2%
0	?	-10%	CCOC(=O)C1=NN(C(=O)c2ccc(OC)cc2)C(O)(c2ccc(Cl)cc2)C1 (stereo not drawn)	4%
3	-0.9%	-1%	N#C/C(=C\c1ccc(OCC(N)=O)cc1)S(=O)(=O)c1ccccc1	-21%
-2	2.4%	0%	Cc1cc(C)c(S(C)(=O)=O)c(N(C)N)n1	2%
-11	2.3%	-5%	COc1ccc(C(=O)Nc2c(-c3cccs3)c(=O)c3ccccc3n2C)cc1	?
-16	-1.3%	-14%	N#CCCNC(=O)Cn1c(COc2ccc(Cl)cc2)nc2ccccc21	-6%

(listing goes on)
GLA inh pH 4.5	Rango complex inh	miR-21 reporter	smiles	Rango dissoc inh
-1	-0.8%	-31%	COc1ccc(C(=O)Nc2ccccc2C(=O)N/N=C/c2cccc3ccccc23)cc1	8%
-11	0.1%	-5%	O=C(/C=C/c1ccccc1Cl)N(Cc1ccc(Cl)cc1)C1CCS(=O)(=O)C1 (stereo not drawn)	-4%
1	1.3%	-24%	COc1ccc(CC(=O)c2ccc(O)cc2O)cc1OC	-9%
-4	-0.7%	-1%	COc1ccc2nc(COC(=O)c3cccs3)c(C(C)=O)[n+]([O-])c2c1	-1%
/	?	-7%	Cc1cccc(NC(=O)c2cc3c(=O)n4ccccc4nc3s2)c1	?
/	3.8%	0%	COc1ccc(CNC(=O)CN(Cc2ccccc2)C(=O)CCC(=O)Nc2ccccn2)cc1	27%
2	-0.7%	1%	COc1cc(NC(=O)Cn2ccsc2=N)cc(OC)c1	4%
/	1.4%	/	OCC(O)C1OC(c2ccco2)OC(CO)C1O (stereo not drawn)	1%
2	5.2%	-6%	O=C(c1nc2ccccn2c1CN1CCCC(OCc2ccccc2)C1)N1CCCC1 (stereo not drawn)	-2%
